Bioassay records from PubChem BioAssay.
nsP2pro primary: blocks chikungunya virus nsP2 protease peptide cleavage; FRET peptide cleavage, nsP2pro, fluorescence 1 h; Potency, µM (highest dose often 24.9 µM), for the others: top-dose activity change, negative = inhibition, usual class: inhibitors; Q8JUX6; 1.1% of 31,000 active; active means well fitted inhibition curve with a large enough effect; inconclusive means small, poorly fitted or top-dose-only effect; inactive means no such curve, though single readings can be large or run the other way; also: nearly all actives have a fitted effect of over 60% in size; a reference inhibitor and vehicle were the controls
Numbers without * were called inactive; i = inactive; ? = inconclusive; & = joins results of further samples; [ ] = dose if it differs, or a comment. % is scaled to controls: 0 for no effect and ±100 for the full control effect; potency is read from the fitted curve at half-maximal effect.

SMILES	nsP2pro primary
CCN(CC)CCNC(=O)c1ccc2c(c1)NC(=O)C(CS(=O)(=O)Cc1ccc(F)cc1Cl)N2 (configuration not stated)	-24%
COc1ccc2c(c1)CCc1c(C(=O)Nc3c(C)nn(Cc4ccc(C)cc4)c3C)noc1-2	-11%
CCCN(C(=O)c1cc2ccc3cccnc3c2[nH]1)c1ccc(F)cc1	-16%
CCCCCCCCCCCCCCCC(=O)OC1C(SC)OC(C(NC(=O)C2CC(CCC)CN2C)C(C)Cl)C(O)C1O (configuration not stated)	7%
CN(C)CCOC(=O)COc1ccc(Cl)cc1	-6%
COc1cccc(Nc2cccc(CN3CCCC(C)(NC(C)=O)C3)c2)c1 (configuration not stated)	4%[39.2 µM]
COc1ccccc1NC(=O)c1c(NC(=O)c2cccs2)sc2c1CCC(C(C)(C)C)C2 (configuration not stated)	29%
O=C(Nc1ccccc1F)N1CC(Oc2cccc(-c3nc(-c4ccccc4)no3)c2)C1	i
O=C(NC1CCCCCC1)c1ccc(CS(=O)c2ccc(Br)cc2)o1 (configuration not stated)	-28%
CC(=O)c1cccc(NC(=O)C(CC(C)C)NS(=O)(=O)c2ccc3c(c2)CCN3C(C)=O)c1 (configuration not stated)	?
CCOc1ccc(NC(=O)Cn2nc3n(c2=O)CCN(Cc2ccccc2C)C3=O)cc1	-4%
COCCNC(=O)c1ccc2c(c1)N(C)C(CC(=O)NCC(C)C)CO2 (configuration not stated)	2%
Cc1cccc(CSc2nc3ccncc3n2CC(=O)N(C)C2CCCCC2)c1	-9%
COc1ccccc1-c1nc2nccc(-c3cccnc3)n2n1	4%
Cc1c(Cl)cccc1NC(=O)N1CCCC1c1nncn1-c1ccccc1 (configuration not stated)	i
CC(=O)N1CCC2(CC1)OC(=O)C(C)=C2C(=O)Nc1ccccc1C(F)(F)F	-19%
CN(C)c1ccc(Nc2nc3ccccc3n3nnnc23)cc1	-16%
Cc1cc(-c2nc3ccncc3[nH]2)c(C)[nH]1	i
CC(NC(=O)CCSCc1ccccc1F)c1ccccc1 (configuration not stated)	4%
CC(C)CN(C[C@@H](O)[C@H](Cc1ccccc1)NC(=O)O[C@H]1CO[C@H]2OCC[C@H]21)S(=O)(=O)c1ccc(N)cc1	-20%&0%&-6%&-1%
C=C(C(=O)O)C1CC(O)C2(C)CCCC(C)(O)C2C1 (configuration not stated)	26%
N#CN1CCC(NC(=O)c2ccc(C(F)(F)F)cc2)CC1	-4%
C[C@H]1[C@H](C)CC[C@]2(C(=O)OC3OC(CO)C(O)C(O)C3O)CC[C@]3(C(=O)O)C(=CCC4[C@@]5(C)CC[C@H](O[C@@H]6O[C@@H](C)[C@H](OC7OC(CO)C(O)C(O)C7O)[C@@H](O)[C@H]6O)C(C)(C)C5CC[C@]43C)[C@H]12 (some centres not stated)	75%[activator][5.1 µM]
O=C(c1ccccc1F)N1CCC(N2Cc3ccccc3C2=O)CC1	2%

Grouped by structure: those above containing an aryl methoxy group (four)
SMILES	nsP2pro primary
COc1ccc2c(c1)CCc1c(C(=O)Nc3c(C)nn(Cc4ccc(C)cc4)c3C)noc1-2	-11%
COc1cccc(Nc2cccc(CN3CCCC(C)(NC(C)=O)C3)c2)c1 (configuration not stated)	4%[39.2 µM]
COc1ccccc1NC(=O)c1c(NC(=O)c2cccs2)sc2c1CCC(C(C)(C)C)C2 (configuration not stated)	29%
COc1ccccc1-c1nc2nccc(-c3cccnc3)n2n1	4%

Following part:
SMILES	nsP2pro primary
O=C(O)C(Cl)Cl	1%
O=C(NCC1CC1)C1CCc2nnc(-c3ccccn3)n21 (configuration not stated)	-9%[39.2 µM]
COC1=C[C@@H]2[C@@H]3Cc4ccc(OC)c(O)c4[C@]2(CCN3C)CC1=O	-8%
CC(C)c1nc(-c2ccc(OC3CCNC3)cc2)no1 (configuration not stated)	i
O=C(c1ccc(Br)o1)N1CCC(c2n[nH]c(=O)n2Cc2ccc(F)cc2)CC1	3%
Cc1cnc(-c2ccccc2C2COC2)nc1NCc1ccc(-c2cccnc2)cc1	2%&-1%
CNc1oc(-c2cccc3ccccc23)nc1C(=O)OC	-8%
O=c1c2[nH]c3ccsc3c2cnn1Cc1ccccc1F	-1%
CN=C(NC#N)NCCSCc1nc[nH]c1C	-9%
O=C1NC(=NC2CCCC2)C2(CCN(Cc3cccnc3)CC2)N1c1cc(F)cc(F)c1	0%
O=C(O)CC1(CC(=O)N[C@H]2C[C@@](O)(C(=O)N[C@H]3CCCNC3=O)C[C@@H](O)[C@@H]2O)CCCC1	i
CCCN1CCN(c2ncnc3sc(C(=O)Nc4ccc(C(C)C)cc4)c(C)c23)CC1	37%[activator]

Structural class: the compounds so far containing a COOH group
SMILES	nsP2pro primary
C=C(C(=O)O)C1CC(O)C2(C)CCCC(C)(O)C2C1 (configuration not stated)	26%
C[C@H]1[C@H](C)CC[C@]2(C(=O)OC3OC(CO)C(O)C(O)C3O)CC[C@]3(C(=O)O)C(=CCC4[C@@]5(C)CC[C@H](O[C@@H]6O[C@@H](C)[C@H](OC7OC(CO)C(O)C(O)C7O)[C@@H](O)[C@H]6O)C(C)(C)C5CC[C@]43C)[C@H]12 (some centres not stated)	75%[activator][5.1 µM]
O=C(O)C(Cl)Cl	1%
O=C(O)CC1(CC(=O)N[C@H]2C[C@@](O)(C(=O)N[C@H]3CCCNC3=O)C[C@@H](O)[C@@H]2O)CCCC1	i

Further records follow.
SMILES	nsP2pro primary
O=C(Nc1ccccc1C(=O)N1CCCCC1)c1nsc2ccccc12	-2%
COC(=O)c1sc(-c2ccccc2)cc1NC(=O)Nc1ccc(Cl)cc1	-17%
CCn1cc(S(=O)(=O)N2CC(N(C3CCOCC3)S(C)(=O)=O)C2)cn1	-2%
CCc1nc2cc(N3CCC(C(=O)NCc4cccnc4)CC3)cnc2nc1CC	?
OCCC#Cc1ccc(CN2CCC(CO)(Cc3ccccc3Cl)CC2)cc1	i
O=C(c1cccnn1)N1CCC2(CCCN(C3CCOCC3)C2=O)C1 (configuration not stated)	-7%
COc1ccc(-c2nc(-c3ccccc3)nc3c2CN([S+](=O)([O-])c2cccs2)CC3)cc1	-30%
O=C(c1c2c(nc3ccccc13)CCCC2)N1CCCC(c2nc(C3CCOCC3)no2)C1 (configuration not stated)	i
O=C(NCc1cccnc1)c1cc(CN2CCC(Cc3ccccc3)CC2)on1	i
Cc1oc2c(c(C)cc3oc(=O)c(CC(=O)NCCc4ccccc4F)c(C)c32)c1C	-13%
COCCc1ccc(OCc2ccccc2-c2ccc(=O)n(C)n2)cc1	i
CCCN(CCc1ccsc1)C1CCc2c(O)cccc2C1 (configuration not stated)	14%
CC(C)(N)c1ccc(-c2nc3ccccc3nc2-c2ccccc2)cc1	23%
CC(C)CC(=O)N1[C@@H](c2ccco2)[C@@H](C(=O)O)C[C@]12CCCCNC2=O	?
C[C@@H]1O[C@@H](O[C@H]2[C@@H]3C=CO[C@@H](O[C@@H]4O[C@H](CO)[C@@H](O)[C@H](O)[C@H]4O)[C@@H]3[C@@]3(CO)O[C@@H]23)[C@H](OC(=O)/C=C/c2ccc(O)c(O)c2)[C@H](O)[C@H]1O	?
CC(=O)Nc1ccccc1OC1=N[S+](=O)([O-])c2ccccc21	-4%
N#Cc1ccccc1CN1C(=O)c2ccccc2Sc2ccc(C(=O)OCc3ccco3)cc21	?
CCN(CC)C(=O)N1CCN(C)CC1	-8%
CCc1nnc([C@@H]2CC(F)(F)CN2C(=O)c2ocnc2C)o1	-1%
O=C(Nc1ccccc1)c1nc[nH]c1C(=O)O	-19%
COCCCNC(=O)c1ccc2c(c1)nc1n2CCCCC1	-14%
Cc1cc(C)cc(NC(=O)c2cc(S(=O)(=O)NCCC3=CCCCC3)ccc2F)c1	0%
O=C(CCc1ccccc1)NCCc1csc(-c2cccc(F)c2)n1	-22%
O=C(Nc1ccc(-n2cncn2)c(C(F)(F)F)c1)Nc1nnc(-c2ccncc2)s1	-1%
O=C1CCCc2cc(S(=O)(=O)N3CCCC(C(=O)NCc4ccccc4)C3)ccc2N1 (configuration not stated)	-21%
O=C1[C@H]2CN(S(=O)(=O)c3ccc(F)cc3)CCN2C(=O)N1CCO	-5%[39.2 µM]
O=C(CCCN1CCC(n2c(=S)[nH]c3ccccc32)CC1)c1ccc(F)cc1	11%
C=C1C(=O)O[C@@H]2C[C@H](C)[C@@H]3CC(=O)C(C)=C3C[C@H]12	0.44µM*
COc1ccc(NC(=O)Cn2c(=O)n(CC(=O)NCCc3ccccc3)c(=O)c3ccccc32)cc1	-15%
Cn1nc(C2CCCNC2)c2c(C(=O)NC3CC3)cc(C3CC3)nc21 (configuration not stated)	-3%
CCOc1ccccc1-c1nnc2n1N=C(c1cc(OC)cc(OC)c1)CS2	5%
Cc1cccc(N2CCN(C(=O)c3ccc4c(Cl)c5c(nc4c3)CCCC5)CC2C)c1 (configuration not stated)	-20%
Cc1ccc(NC(=O)CSc2nnc(-c3cccc([S+](=O)([O-])N4CCCC4)c3)n2-c2c(C)cccc2C)cc1	-4%
Cc1ccc(S(=O)(=O)Nc2ccccc2C(=O)Nc2nccs2)cc1	i
O=C1c2ccccc2C(=O)N1c1ccc2ccccc2n1	3%
Cc1ccc(NC(=O)Cn2c(=O)c(CNc3ccccc3)cc3cc4c(cc32)OCCO4)cc1	?

Looked up above:
Under nsP2pro primary, CC(NC(=O)CCSCc1ccccc1F)c1ccccc1 (configuration not stated) shows 4%
Under nsP2pro primary, Cn1nc(C2CCCNC2)c2c(C(=O)NC3CC3)cc(C3CC3)nc21 (configuration not stated) shows -3%
Under nsP2pro primary, COc1ccc2c(c1)CCc1c(C(=O)Nc3c(C)nn(Cc4ccc(C)cc4)c3C)noc1-2 shows -11%
Under nsP2pro primary, CCCCCCCCCCCCCCCC(=O)OC1C(SC)OC(C(NC(=O)C2CC(CCC)CN2C)C(C)Cl)C(O)C1O (configuration not stated) shows 7%

New compounds follow.
SMILES	nsP2pro primary
N#Cc1cccc(CSc2nc3ncc(Br)cc3[nH]2)c1	-11%
CS(=O)(=O)c1ccc(CN2CCC(C(O)c3ccccn3)CC2)cc1 (configuration not stated)	11µM*
O=C(Cn1cc(S(=O)(=O)Cc2ccccc2Cl)c2ccccc21)NCCc1ccccc1	24%
C[C@]1(OC(=O)/C=C/c2ccc(O)cc2)C[C@@H](O)[C@]2(O)C=CO[C@@H](O[C@@H]3O[C@H](CO)[C@@H](O)[C@H](O)[C@H]3O)C12 (some centres not stated)	22%[10 µM]
CN(CC1CCOC1)S(=O)(=O)Cc1cccc(Cl)c1 (configuration not stated)	3%
COc1nccnc1NC1CCN(C(=O)c2ccco2)CC1	i
Cc1ccc(F)cc1S(=O)(=O)N[C@@H]1CCN(Cc2ccc(OC(C)C)cc2)C1	-1%
CCCN(CCC)C(=O)Cn1c(=O)n(-c2cccc(C(F)(F)F)c2)c(=O)c2c(C)c(C)sc21	-18%
CCn1nc(C)c(-c2cc(C(=O)N3CCC(CCOc4ccccc4OC)C3)no2)c1C (configuration not stated)	i
O=C1CCCC2=C1C1(CCCC1)N=C(Nc1nc3ccccc3o1)N2	i
COc1cncc(Nc2ncc(-c3ccccc3OC)c3c2OCC3)c1	?
CC[C@@H]1[C@H]2CCCCN3C(=O)C[C@H]([C@@H]4[C@H]1OC(=O)[C@H]4C)[C@@H]23	-9%
O=C(OCc1ccccc1)c1ccccc1	5%
O=C(/C=C/c1ccc(O)cc1)OCC1OC(O)C(OC2OC(CO)C(O)C(O)C2O)C(O)C1O (configuration not stated)	-16%[10 µM]
O=C(Nc1ccc(Br)cc1F)c1cc(S(=O)(=O)NC2CCCCC2)ccc1F	-18%
O=C(CSc1ccnc(=O)[nH]1)NCc1ccc(F)cc1	-10%
FC(F)(F)C(F)(F)C(F)(F)C(F)(F)C(F)(F)F	?
Cc1ccccc1Cc1c(C)nc2c(C(=O)N3CCC(Cc4nncn4CC4CC4)CC3)cnn2c1C	i
O=C1CCC(=O)N1CO	2%
O=C(/C=C/c1cn(CC(O)CN2CCc3ccccc32)c2ccccc12)c1ccc(Br)cc1 (configuration not stated)	-22%
O=C1CC(c2nc3ccccc3[nH]2)CN1c1cccc(Cl)c1 (configuration not stated)	-6%
C[C@H](O)c1c(-c2ccc(F)cc2)noc1C(=O)N1CCCC1	0%[39.2 µM]
O=C(NCCn1cc(SCc2ccccc2)c2ccccc21)c1cccs1	-14%
CCC(CC)Nc1ncnc2c1CN(C1CCC1)C(=O)CN2C	-9%[39.2 µM]
CCOC(=O)CSc1nc2c(sc3ccccc32)c(=O)n1CCc1ccccc1	-13%
O=C(N[C@H]1C[C@@H](CO)N(CC2CCCCC2)C1)c1cccnc1	-20%
COc1ccccc1-c1cn2c(n1)CO[C@@H](CNC1CCOCC1)C2	5%[39.2 µM]
CC1(C(=O)O)CCCC2(C)C3CCC4CC3(CCC12)CC4C(=O)O (configuration not stated)	?
COCCN(CCOC)c1nc(C)nc2c1nc(-c1ccccc1)n2CCN(C)C	-3%
Cc1nnc(-c2cnn(C)c2N)n1CCCn1ccnc1	-25%
COc1ccc(-c2cc(C(=O)N3CCN(c4ccccc4OC)CC3)c3cc(C(C)C)ccc3n2)cc1	-22%
Cc1cccc(C)c1NC(=O)c1sc(-n2nc(C)c(Cc3ccccc3)c2C)nc1C	-18%
Cn1ccc(C(=O)NCc2nnc3n2C(C(=O)NCCc2ccc(Cl)cc2)CC3)n1 (configuration not stated)	-16%
CC(C)n1cc2cc(C(=O)Nc3ccc4c(c3)OCCO4)sc2c1	5%
O=C(C1CCCC1)N1CCCC(C(=O)N2CCC(c3nc4ccncc4[nH]3)C2)C1 (configuration not stated)	3%
COc1cc2c(NC3CCN(C(C)C)CC3)nc(C3CCCCC3)nc2cc1OCCCN1CCCC1	100%[activator]
O=C1CCCc2cc(S(=O)(=O)NCC3CCC(C(=O)Nc4ccc(Cl)cc4)CC3)ccc2N1 (configuration not stated)	-23%
COc1ccc2[nH]c3c(c2c1)CCN[C@]31CS[C@@H]2c3c(OC(C)=O)c(C)c4c(c3[C@H](COC1=O)N1[C@@H]2[C@H]2c3c(cc(C)c(OC)c3O)C[C@@H]([C@@H]1O)N2C)OCO4	?
O=C(NCc1ccco1)C1CC(c2ccccc2)CN(C(=O)Nc2ccc(Cl)cc2)C1 (configuration not stated)	?

This is a subset. The share of hits here may be higher or lower than overall.
